Screens (PubChem BioAssay)
A1 apoptosis 2 – blocks A1, raising caspase activity. MEF A1-2A-BIM cells, caspase-Glo luminescence, 3 h; percent of clofoctol response, DMSO zero. caspase activation, % (concentration not given with the values). 24,000 tested, under 10 active. AID 2465; in the data active means caspase activation above about 5.9%;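 further: wells of about 30 µL received 50 nL stock; the first replicate is given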
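Material: mouse embryonic fibroblasts co-expressing A1 and BIM (A1-2A-BIM), primed for A1 dependence / Quantity: 2500 cells/well / Buffer or medium: RPMI-1640 growth medium with 10% FBS / Doses: 50 nL compound per well, pinned / Schedule: 3 h compound exposure at 37 °C / Signal: Caspase-Glo luminescence (DEVD substrate) / Measure: Caspase-3/7 activation, seen as rise in luminescence signal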
* marks the source's active call; other numbers are inactive results. The list is partial (hit frequency here may not be typical).

no.	compound	A1 apoptosis 2
1	C[C@H](CO)N1C[C@H](C)[C@@H](CN(C)S(=O)(=O)c2ccc(Cl)cc2)Oc2c(cccc2N(C)C)C1=O	-0.7
2	C[C@@H]1CN([C@@H](C)CO)C(=O)c2cc(NC(=O)Nc3ccc(F)cc3)ccc2O[C@@H](C)CCCCO[C@H]1CN(C)Cc1ccc(Cl)c(Cl)c1	-0.7
3	Cc1noc(C)c1S(=O)(=O)Nc1ccc2c(c1)C(=O)N([C@H](C)CO)C[C@H](C)[C@@H](CN(C)C(=O)Nc1cccc3ccccc13)OCCCC[C@H](C)O2	-0.9
4	C[C@@H]1CCCCO[C@H](CN(C)C)[C@@H](C)CN([C@@H](C)CO)C(=O)c2cc(NC(=O)Nc3ccc4c(c3)OCO4)ccc2O1	-1.7
5	C[C@H](CO)N1C[C@H](C)[C@H](CN(C)Cc2ccc3c(c2)OCO3)Oc2ncc(-c3cccc(F)c3)cc2C1=O	-0.3
6	C[C@H]1CN([C@@H](C)CO)C(=O)c2cc(NC(=O)c3ccncc3)ccc2O[C@H]1CN(C)C(=O)Nc1ccc(C(F)(F)F)cc1	0.1
7	C[C@@H]1CN([C@@H](C)CO)C(=O)c2cc(NC(=O)Nc3ccc(C(F)(F)F)cc3)ccc2O[C@H]1CN(C)C(=O)Nc1ccc(C(F)(F)F)cc1	-0.8
8	CCO[C@H]1OC(C(=O)NC2CC2)=C[C@@H](c2ccc(C(F)(F)F)cc2)[C@@H]1CCCO	0.8
9	COc1ccc(S(=O)(=O)N(C)C[C@@H]2Oc3c(NS(C)(=O)=O)cccc3C(=O)N([C@@H](C)CO)C[C@H]2C)cc1	-0.1
10	CCO[C@@H]1OC(C(=O)N2CCCC2)=C[C@H](c2ccc(C(F)(F)F)cc2)[C@H]1CCCO	0.0
11	C[C@H]1CN([C@@H](C)CO)C(=O)c2cc(NC(=O)CCCN(C)C)ccc2O[C@H]1CN(C)Cc1ccc(Cl)c(Cl)c1	0.3
12	COc1ccc(CN(C)C[C@H]2OCCCC[C@@H](C)Oc3ccc(NC(=O)CCC(F)(F)F)cc3C(=O)N([C@@H](C)CO)C[C@H]2C)cc1	0.2
13	COc1ccc(CN(C)C[C@@H]2Oc3ccc(NC(=O)NC(C)C)cc3C(=O)N([C@@H](C)CO)C[C@@H]2C)cc1	-0.8
14	C[C@@H]1CN([C@H](C)CO)C(=O)c2cccc(NS(=O)(=O)c3cn(C)cn3)c2O[C@@H]1CN(C)Cc1ccc2c(c1)OCO2	0.4
15	Cc1cc(C(=O)Nc2cccc3c2O[C@@H](CN(C)C(=O)Nc2ccc(C(F)(F)F)cc2)[C@H](C)CN([C@H](C)CO)C3=O)n(C)n1	-0.1
16	C[C@@H]1CCCCO[C@@H](CN(C)C(=O)Nc2cccc3ccccc23)[C@H](C)CN([C@@H](C)CO)C(=O)c2cc(NC(=O)C3CCCCC3)ccc2O1	-0.1
17	Cc1noc(C)c1S(=O)(=O)N(C)C[C@H]1Oc2ccc(NC(=O)CCCN(C)C)cc2C(=O)N([C@@H](C)CO)C[C@H]1C	0.6
18	C[C@@H]1CN([C@H](C)CO)C(=O)Cc2cc(NS(=O)(=O)c3cn(C)cn3)ccc2O[C@@H]1CN(C)C	1.0
19	C[C@@H]1CCCCO[C@H](CN(C)S(=O)(=O)c2cn(C)cn2)[C@H](C)CN([C@@H](C)CO)C(=O)c2cc(NC(=O)c3ccccc3)ccc2O1	0.1
20	CNC[C@H]1OCCCC[C@@H](C)Oc2ccc(NS(=O)(=O)c3c(C)noc3C)cc2C(=O)N([C@H](C)CO)C[C@@H]1C	0.9
21	CNC[C@@H]1OCCCC[C@@H](C)Oc2ccc(NC(=O)Nc3ccccc3)cc2C(=O)N([C@@H](C)CO)C[C@H]1C	-0.5
22	Cc1ccc(S(=O)(=O)Nc2cccc3c2O[C@@H](CN(C)CC2CC2)[C@H](C)CN([C@@H](C)CO)C3=O)cc1	-0.3
23	C[C@H](CO)N1C[C@H](C)[C@H](CN(C)Cc2ccncc2)OCCCC[C@H](C)Oc2ccc(NC(=O)c3ccncc3)cc2C1=O	-0.2
24	COc1ccc(NC(=O)Nc2ccc3c(c2)C(=O)N([C@@H](C)CO)C[C@@H](C)[C@H](CN(C)Cc2ccncc2)O3)cc1	-0.4
25	C[C@H](CO)N1C[C@H](C)[C@@H](CN(C)C(=O)Nc2ccccc2)OCCCC[C@H](C)Oc2ccc(NC(=O)Cc3ccccc3)cc2C1=O	0.0

Next section:
no.	compound	A1 apoptosis 2
26	C[C@H](CO)N1C[C@H](C)[C@H](CN(C)C(=O)Nc2ccc3c(c2)OCO3)Oc2ccc(NC(=O)Nc3ccccc3)cc2CC1=O	-1.6
27	C[C@H]1CN([C@@H](C)CO)C(=O)Cc2cc(NC(=O)Nc3ccc(C(F)(F)F)cc3)ccc2O[C@H]1CN(C)S(=O)(=O)c1ccc(Cl)cc1	1.5
28	Cc1ccc(S(=O)(=O)Nc2cccc3c2O[C@H](CN(C)Cc2ccc(C(=O)Nc4ccccc4N)cc2)[C@@H](C)CN([C@@H](C)CO)C3=O)cc1	2.1
29	CNC[C@H]1Oc2ccc(NC(=O)Cc3ccccc3)cc2C(=O)N([C@H](C)CO)C[C@@H]1C	-0.4
30	CNC[C@@H]1Oc2ccc(NS(=O)(=O)c3c(C)noc3C)cc2C(=O)N([C@@H](C)CO)C[C@@H]1C	-1.1
31	C[C@@H]1CN([C@H](C)CO)C(=O)c2cc(NC(=O)Nc3ccc(F)cc3)ccc2O[C@@H]1CN(C)S(=O)(=O)c1ccccc1	0.0
32	COc1ccc(C#Cc2ccc3c(c2)[C@]2(C(=O)N3)[C@H](C(=O)N3CCc4cc(OC)c(OC)cc4C3)[C@H]3C(=O)O[C@H](c4ccccc4)[C@H](c4ccccc4)N3[C@@H]2c2ccc(OCCO)cc2)cc1	-0.5
33	Cc1noc(C)c1NC(=O)Nc1cccc2c1O[C@@H](CN(C)C(=O)Nc1ccc(C(F)(F)F)cc1)[C@@H](C)CN([C@@H](C)CO)C2=O	-1.1
34	C[C@H]1CN([C@@H](C)CO)C(=O)c2cccc(NC(=O)C3CC3)c2O[C@H]1CN(C)CC1CC1	-0.3
35	C[C@H]1CN([C@@H](C)CO)C(=O)c2cccc(NC(=O)c3ccncc3)c2O[C@H]1CN(C)CC1CCCCC1	0.4
36	C[C@@H]1CN([C@H](C)CO)C(=O)c2cccc(NS(=O)(=O)c3ccc(Cl)cc3)c2O[C@H]1CN(C)C(=O)Nc1cccc2ccccc12	-0.1
37	C[C@H]1CN([C@@H](C)CO)C(=O)c2cc(NC(=O)Nc3ccc4c(c3)OCO4)ccc2O[C@@H]1CN(C)S(=O)(=O)c1cccs1	1.8
38	C[C@H]1CN([C@@H](C)CO)C(=O)CCCn2nncc2CO[C@@H]1CN(C)S(=O)(=O)c1ccc2ccccc2c1	-1.4
39	C[C@@H]1CN([C@H](C)CO)C(=O)CCCn2cc(nn2)CO[C@H]1CN(C)C(=O)CCCN(C)C	-1.0
40	Cc1noc(C)c1S(=O)(=O)Nc1ccc2c(c1)CC(=O)N([C@H](C)CO)C[C@@H](C)[C@@H](CN(C)CC1CCCCC1)O2	-0.7
41	C[C@@H]1CCCCO[C@H](CN(C)CC2CCCCC2)[C@H](C)CN([C@H](C)CO)C(=O)c2cc(NC(=O)Nc3ccc4c(c3)OCO4)ccc2O1	0.4
42	CC(C)NC(=O)Nc1ccc2c(c1)C(=O)N([C@@H](C)CO)C[C@H](C)[C@@H](CN(C)C)O2	0.2
43	Cc1noc(C)c1NC(=O)N(C)C[C@H]1OCCCC[C@@H](C)Oc2ccc(NC(=O)c3ccncc3)cc2C(=O)N([C@@H](C)CO)C[C@@H]1C	0.6
44	Cc1ccc(OC(=O)N(C)C[C@@H]2OCc3cn(nn3)CCCC(=O)N([C@@H](C)CO)C[C@@H]2C)cc1	0.2
45	C[C@@H]1CCCCO[C@@H](CN(C)C(=O)Nc2cccc3ccccc23)[C@H](C)CN([C@@H](C)CO)C(=O)c2cc(NC(=O)Nc3cccc4ccccc34)ccc2O1	-1.6
46	C[C@@H]1CCCCO[C@@H](CN(C)S(=O)(=O)c2ccccc2)[C@@H](C)CN([C@@H](C)CO)C(=O)c2cc(NC(=O)Cc3ccccc3)ccc2O1	1.0
47	C[C@@H]1CN([C@H](C)CO)C(=O)c2cc(NS(=O)(=O)c3cccs3)ccc2O[C@H]1CN(C)C(=O)NC1CCCCC1	1.4
48	C[C@H](CO)N1C[C@H](C)[C@@H](CN(C)S(=O)(=O)c2cccs2)Oc2ccc(NS(=O)(=O)c3cccs3)cc2CC1=O	-0.2
49	C[C@@H]1CN([C@@H](C)CO)C(=O)Cc2cc(NC(=O)CCN3CCOCC3)ccc2O[C@H]1CN(C)S(C)(=O)=O	-0.5
50	C[C@H](CO)N1C[C@H](C)[C@H](CN(C)C)OCCCC[C@H](C)Oc2ccc(N(C)C)cc2C1=O	-1.1

Next section.
no.	compound	A1 apoptosis 2
51	C#Cc1ccc([C@H]2C=C(C(=O)O)O[C@@H](OCC)[C@@H]2CCCO)cc1	1.8
52	Cc1cc(C(=O)Nc2cccc3c2O[C@H](CN(C)S(C)(=O)=O)[C@@H](C)CN([C@H](C)CO)C3=O)n(C)n1	0.5
53	COc1ccc(C#Cc2ccc3c(c2)[C@]2(C(=O)N3)[C@H](c3ccccc3OCCO)N3[C@H](c4ccccc4)[C@H](c4ccccc4)OC(=O)[C@H]3[C@@H]2C(=O)O)cc1	-0.8
54	CCO[C@@H]1OC(C(=O)O)=C[C@H](c2cn(C(C)=O)c3ccccc23)[C@H]1CCCO	-0.5
55	COc1ccc(S(=O)(=O)N(C)C[C@@H]2OCCCC[C@@H](C)Oc3ccc(NS(=O)(=O)c4ccc(C)cc4)cc3C(=O)N([C@@H](C)CO)C[C@@H]2C)cc1	-0.7
56	Cc1ccc(S(=O)(=O)N(C)C[C@@H]2Oc3c(NC(=O)CCCCCC(=O)Nc4ccccc4N)cccc3C(=O)N([C@H](C)CO)C[C@H]2C)cc1	1.5
57	COc1ccc(S(=O)(=O)N(C)C[C@H]2OCCCC[C@H](C)Oc3ccc(NC(=O)c4ccccc4)cc3C(=O)N([C@@H](C)CO)C[C@H]2C)cc1	-0.6
58	C[C@H]1CN([C@@H](C)CO)C(=O)c2cc(NS(=O)(=O)c3ccc(Cl)cc3)ccc2O[C@H]1CN(C)C(=O)Nc1cccc2ccccc12	-0.9
59	CCCN(C)C[C@H]1OCCCC[C@@H](C)Oc2ccc(NS(=O)(=O)c3ccccc3)cc2C(=O)N([C@@H](C)CO)C[C@H]1C	0.1
60	CC(C)NC(=O)Nc1ccc2c(c1)C(=O)N([C@H](C)CO)C[C@H](C)[C@H](CN(C)S(=O)(=O)c1ccccc1)OCCCC[C@H](C)O2	-0.3
61	C[C@@H]1CN([C@H](C)CO)C(=O)c2cc(NC(=O)c3ccncc3)ccc2O[C@H]1CN(C)Cc1ccncc1	0.4
62	COc1ccc(CN(C)C[C@H]2Oc3ccc(NC(=O)Nc4ccccc4)cc3CC(=O)N([C@H](C)CO)C[C@@H]2C)cc1	-0.6
63	C[C@@H]1CN([C@@H](C)CO)C(=O)c2cc(NC(=O)c3ccncc3)ccc2O[C@@H](C)CCCCO[C@H]1CN(C)C(=O)c1ccncc1	-0.7
64	C[C@@H]1CN([C@@H](C)CO)C(=O)CCCn2cc(nn2)CO[C@H]1CN(C)C(=O)c1ccncc1	-0.3
65	C[C@@H]1CCCCO[C@H](CN(C)Cc2ccc(Cl)c(Cl)c2)[C@@H](C)CN([C@@H](C)CO)C(=O)c2cc(NS(=O)(=O)c3ccc(F)cc3)ccc2O1	-0.9
66	COc1ccc(NC(=O)Nc2ccc3c(c2)CC(=O)N([C@H](C)CO)C[C@@H](C)[C@H](CN(C)Cc2ccc(C(=O)O)cc2)O3)cc1	1.8
67	C[C@H](CO)N1C[C@H](C)[C@@H](CN(C)S(=O)(=O)c2cccs2)Oc2ccc(NC(=O)Cc3ccccc3)cc2CC1=O	-0.7
68	COc1ccc(CN(C)C[C@H]2Oc3ccc(NC(=O)Nc4ccc(OC)cc4)cc3C(=O)N([C@@H](C)CO)C[C@@H]2C)cc1	0.7
69	C[C@H]1CN([C@@H](C)CO)C(=O)c2cc(NC(=O)C3CC3)ccc2O[C@@H]1CN(C)S(=O)(=O)c1cccs1	0.4
70	C[C@@H]1CCCCO[C@@H](CN(C)Cc2ccc(C(=O)O)cc2)[C@H](C)CN([C@H](C)CO)C(=O)c2cc(NC(=O)Nc3ccc(F)cc3)ccc2O1	2.5
71	COc1ccc(S(=O)(=O)N(C)C[C@@H]2OCCCC[C@@H](C)Oc3ccc(NC(=O)CCCN(C)C)cc3C(=O)N([C@@H](C)CO)C[C@@H]2C)cc1	0.3

Structural class, the entries above with two or more sulfur atoms (7)
no.	compound	A1 apoptosis 2
9	COc1ccc(S(=O)(=O)N(C)C[C@@H]2Oc3c(NS(C)(=O)=O)cccc3C(=O)N([C@@H](C)CO)C[C@H]2C)cc1	-0.1
37	C[C@H]1CN([C@@H](C)CO)C(=O)c2cc(NC(=O)Nc3ccc4c(c3)OCO4)ccc2O[C@@H]1CN(C)S(=O)(=O)c1cccs1	1.8
47	C[C@@H]1CN([C@H](C)CO)C(=O)c2cc(NS(=O)(=O)c3cccs3)ccc2O[C@H]1CN(C)C(=O)NC1CCCCC1	1.4
48	C[C@H](CO)N1C[C@H](C)[C@@H](CN(C)S(=O)(=O)c2cccs2)Oc2ccc(NS(=O)(=O)c3cccs3)cc2CC1=O	-0.2
55	COc1ccc(S(=O)(=O)N(C)C[C@@H]2OCCCC[C@@H](C)Oc3ccc(NS(=O)(=O)c4ccc(C)cc4)cc3C(=O)N([C@@H](C)CO)C[C@@H]2C)cc1	-0.7
67	C[C@H](CO)N1C[C@H](C)[C@@H](CN(C)S(=O)(=O)c2cccs2)Oc2ccc(NC(=O)Cc3ccccc3)cc2CC1=O	-0.7
69	C[C@H]1CN([C@@H](C)CO)C(=O)c2cc(NC(=O)C3CC3)ccc2O[C@@H]1CN(C)S(=O)(=O)c1cccs1	0.4
